LASV entry inh: qHTS for Inhibitors of binding or entry into cells for Lassa Virus | Potency, µM (series often up to 37.9 µM), for the others: at the top dose activity change, negative = inhibition, most hits filed as inhibitors | 300,000 compounds, 1.2% hits | Lassa virus pseudotype entry inhibition, cell reporter; control for the full effect not named in the record; active means well fitted inhibition curve with a large enough effect; inconclusive means small, poorly fitted or top-dose-only effect, or effect the other way; inactive means flat fitted curve, though single readings scatter; tested in HEK293 cells; further: on the % scale 0 is the no-effect control and ±100 the full control effect; nearly all actives have a fitted effect of over 50% in size; luciferase read-out
Marburg entry inh: qHTS for inhibitors of binding or entry into cells for Marburg Virus; 300,000 compounds, 1.8% hits; Marburg virus pseudotyped entry inhibition, cell reporter; control for the full effect not named in the record; about a third of the inactives were read at about 46 µM; AID 540276, 2011; Potency, µM (doses to about 37.8 µM), for inactives: at the highest dose activity change, negative = inhibition, usual class: inhibitors; active = well fitted inhibition curve with a large enough effect; inconclusive = small, poorly fitted or top-dose-only effect, or effect the other way; inactive = flat fitted curve, though single readings scatter; tested in HEK293 cells; about a fifth of its hits are not listed in these tables; further: on the % scale 0 is the no-effect control and ±100 the full control effect; luciferase read-out
RE007 growth inh: qHTS Assay for Inhibitors of the HIV-1 protein Vpr. S. pombe RE007 Vpr strain, BacTiter-Glo ATP luminescence, 24 h; control for the full effect not named in the record. Potency, µM (highest dose often 92.2 µM), for the others: top-dose activity change, negative = less growth. 360,000 compounds, 0.21% hits. AID 651644, 2012; active = well fitted falling curve with a large enough effect; inconclusive = small, poorly fitted or top-dose-only effect; inactive = no such curve, though single readings can be large or run the other way;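 further: on the % scale 0 is the no-effect control and ±100 the full control effect; nearly all actives have a fitted effect of over 50% in size; the assay follows cell death caused by Vpr and the record does not say whether a fall means rescue or toxicity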
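Fission yeast RE007 carrying one integrated HIV-1 vpr copy, seeded at OD 0.01 in PMG+AL medium with 23 nL pinned compound. Grown 24 h at 30 degrees; viability read by BacTiter-Glo luminescence after 5 min.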
Cruzain Triton: qHTS Assay for Promiscuous and Specific Inhibitors of Cruzain (with detergent) | Cruzipain (Trypanosoma cruzi), P25779 | purified cruzain, Z-FR-AMC fluorescence, 0.01% Triton | Potency, µM, for inactives: max response, negative = inhibition, most hits filed as inhibitors | 200,000 compounds, 0.43% hits; active means well fitted curve in the direction sought with a large enough effect; inconclusive means small, poorly fitted or top-dose-only effect, or another doubt; inactive means no such curve, though single readings can be large; an effect the other way counts as inactive or inconclusive;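 further: plate controls were neutral wells for no effect and buffer without enzyme for full effect; nearly all actives have a fitted effect of over 40% in size; top concentration of the series not given in the record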
Target sequence (P25779 123-467 limits assumed): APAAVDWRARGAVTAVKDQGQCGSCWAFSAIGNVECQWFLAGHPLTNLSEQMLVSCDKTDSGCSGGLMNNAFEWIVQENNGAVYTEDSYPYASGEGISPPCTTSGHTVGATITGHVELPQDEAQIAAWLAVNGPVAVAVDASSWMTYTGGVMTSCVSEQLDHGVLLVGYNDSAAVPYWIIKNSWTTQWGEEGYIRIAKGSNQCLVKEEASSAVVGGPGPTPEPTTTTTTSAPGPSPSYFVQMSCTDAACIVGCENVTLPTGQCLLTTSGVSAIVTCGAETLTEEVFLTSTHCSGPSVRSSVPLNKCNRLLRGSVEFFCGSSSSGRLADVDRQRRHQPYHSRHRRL
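Detergent-containing arm of a paired screen for aggregation-based inhibition: 0.01% Triton X-100 present. Cruzain at 1.5 nM cleaved 2 uM Z-FR-AMC at pH 5.5 with 5 mM DTT; AMC fluorescence gain over 60 s measured activity.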
NS1 inh: qHTS Assay for Inhibitors of Influenza NS1 Protein Function; S. cerevisiae slowed by influenza A NS1, growth recovery by OD600; Potency, µM (series often up to 46.1 µM), without a hit: top-dose activity, positive = more growth; 270,000 compounds, 0.4% hits; AID 2326, 2010; further: actives are rising curves; nearly all actives have a fitted effect of over 50% in size
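Compounds were scored for reversing the slow growth caused by influenza A NS1 in S. cerevisiae, measured by optical density at 600 nm. Assay medium contained 2% galactose at pH 6.0; NS1-free yeast of the same strain were the positive control.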
2A StopGo: High Throughput Screening for Foot and Mouth Disease Virus Antivirals. human cells with a luciferase reporter of 2A StopGo recoding; control for the full effect not named in the record. Potency, µM (top dose mostly 57.9 µM), for inactives: at the top dose signal change, negative = less light. 410,000 compounds, 1.2% hits. AID 1159524, 2015; active = well fitted falling curve with a large enough effect; inconclusive = small, poorly fitted or top-dose-only effect; inactive = no such curve, though single readings can be large or run the other way; tested in HEK293T cells; further: on the % scale 0 is the no-effect control and ±100 the full control effect; nearly all actives have a fitted effect of over 45% in size; luciferase light after 4 h
Cruzain inh noDet: qHTS Assay for Promiscuous and Specific Inhibitors of Cruzain (without detergent); purified cruzain, Z-FR-AMC fluorescence, no detergent; Potency, µM, without a hit: max response, negative = inhibition, actives largely listed as inhibitors; 200,000 compounds, 2.3% hits; active means well fitted curve in the direction sought with a large enough effect; inconclusive means small, poorly fitted or top-dose-only effect, or another doubt; inactive means no such curve, though single readings can be large; an effect the other way counts as inactive or inconclusive;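 further: plate controls were enzyme without inhibitor for no effect and buffer without enzyme for full effect; nearly all actives have a fitted effect of over 40% in size; top concentration of the series not given in the record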
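Purified cruzain at 1.5 nM, pre-incubated 15 min with compound at room temperature in 100 mM sodium acetate pH 5.5, 5 mM DTT, 0.00005% Triton X-100. Reaction started with 2 uM Z-FR-AMC; AMC fluorescence increase over 60 s gives rate.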
SARS PLP yeast: qHTS of Yeast-based Assay for SARS-CoV PLP; S. cerevisiae expressing SARS-CoV PLpro, growth rescue; control for the full effect not named in the record; Potency, µM (series often up to 32.9 µM), inactives show top-dose activity, positive = growth rescue; 330,000 compounds, 0.19% hits; further: 0% is about no effect; nearly all actives have a fitted effect of over 55% in size; growth read by luminescence after 48 h
* = called active by the depositor; ? = inconclusive; nt = not tested or not shown; & = joins results of further samples; [ ] = dose if it differs, or a comment. Unless noted, the call rests on the fitted dose curve; in most records, active means well fitted rising curve with a large enough effect; inconclusive means small, poorly fitted or top-dose-only effect; inactive means no such curve, though single readings can be large or run the other way. Potency means the concentration at half of the fitted maximal effect.

The opening 3 records, ahead of the listing:
canonical_smiles,LASV entry inh,Marburg entry inh,RE007 growth inh,Cruzain Triton,NS1 inh,2A StopGo,Cruzain inh noDet,SARS PLP yeast
CN(C)S(=O)(=O)N1CCC(Oc2ccc(C(=O)NCC(C)(C)CO)cc2)CC1,1%,-19%[46.1 µM],7%,nt,2%,4%,nt,0%
Cc1nc2ccccc2c(=O)n1/N=C/c1ccc(O)cc1O,29%[46.1 µM],-6%[46.1 µM],-17%,nt,0%,-18%,nt,2%
Cc1ccc(CNc2c(C=O)c(=O)[nH]c3ccccc23)cc1,0%,?,21%,nt,-1%,-8%,nt,-7%

The whole of this part, repeating the preview:
canonical_smiles,LASV entry inh,Marburg entry inh,RE007 growth inh,Cruzain Triton,NS1 inh,2A StopGo,Cruzain inh noDet,SARS PLP yeast
CN(C)S(=O)(=O)N1CCC(Oc2ccc(C(=O)NCC(C)(C)CO)cc2)CC1,1%,-19%[46.1 µM],7%,nt,2%,4%,nt,0%
Cc1nc2ccccc2c(=O)n1/N=C/c1ccc(O)cc1O,29%[46.1 µM],-6%[46.1 µM],-17%,nt,0%,-18%,nt,2%
Cc1ccc(CNc2c(C=O)c(=O)[nH]c3ccccc23)cc1,0%,?,21%,nt,-1%,-8%,nt,-7%
COc1ccc(C2NC(=O)NC(C)=C2C(=O)Nc2cc(C)ccc2C)cc1OC (configuration not stated),-17%,5%,40%,3.6%,4%,8%,-3%,3%
COc1ccc(C(=O)Nc2cccc(-c3cn4ccsc4n3)c2)cc1OC,?,nt,nt,2.0%,nt,6%,?,nt
CC(C)(C)NC(=O)C1CCN(S(=O)(=O)c2cccc3nsnc23)CC1,nt,nt,6%,nt,4%,-11%,nt,2%
CCCCC(=O)Nc1cccc(NC(=O)c2cccc([N+](=O)[O-])c2)c1,nt,nt,11%,nt,1%,-13%,nt,0%
O=C(O)c1ccc(C(=O)O)c(C(=O)c2ccccc2)c1,14%,?,24%,1.9%,-11%,36%[activator],-8%,9%
CCCCNC(=O)c1cnc2n(c1=O)CCS2,20%,5%[46.1 µM],10%,-16%,-1%,25%,-2%,23%
COc1ccc(C(=O)C2CCCN(C3CSCCSC3)C2)cc1OC (configuration not stated),-11%,?,-4%,nt,-2%,-6%,nt,0%
COc1ccc(CCN(C)C(=O)c2cc(=O)c3ccccc3o2)cc1OC,nt,1%[46.1 µM],-28%,nt,11%,46%[activator],nt,-1%
N#Cc1ccccc1NC(=O)C(=O)NCC(c1ccc2c(c1)OCO2)N1CCN(c2ccccc2)CC1 (configuration not stated),?,nt,nt,2.1%,nt,-11%,-11%,nt
CC(C)(C)c1cc(NC(=O)c2ccco2)n(-c2ccccc2)n1,-10%[46.1 µM],0%[46.1 µM],16%,nt,0%,-12%,nt,0%
O=C(c1cn[nH]c1)c1cc(F)ccc1O,12%,22%,11%,1.1%,-3%,-7%,-6%,-2%
Cc1cccc(C)c1OCc1cc(C(=O)NCc2cn(C)nc2C)no1,-25%,-6%,-12%,nt,0%,-23%,nt,0%

The final 2 compounds of the section above are carried over, then new ones follow.
canonical_smiles,LASV entry inh,Marburg entry inh,RE007 growth inh,Cruzain Triton,NS1 inh,2A StopGo,Cruzain inh noDet,SARS PLP yeast
O=C(c1cn[nH]c1)c1cc(F)ccc1O,12%,22%,11%,1.1%,-3%,-7%,-6%,-2%
Cc1cccc(C)c1OCc1cc(C(=O)NCc2cn(C)nc2C)no1,-25%,-6%,-12%,nt,0%,-23%,nt,0%
COCCCNC(=O)c1c(N)n(-c2ccc3c(c2)OCO3)c2nc3ccccc3nc12,-1%,-24%,-14%,-2.0%,-40%,-23%,?,-1%
Cc1cc(C(=O)CCC(=O)N2CCN(S(=O)(=O)c3ccccc3)CC2)c(C)s1,1%[46.1 µM],-8%,-21%,nt,nt,-20%,nt,-7%
Cn1c(SCC(=O)Nc2cc([N+](=O)[O-])ccc2F)nnc1C(F)(F)F,8%,6%,0%,-2.2%,8%,-10%,-1%,-12%
Cc1ccc(CCNC(=O)c2nn(C)c3c2CS(=O)(=O)c2ccccc2-3)cc1,7%[46.1 µM],?,-7%,nt,8%,-17%,nt,18%
CCCc1[nH]c2ccc(C#N)cc2c1CCC,nt,nt,3%,nt,-30%,?,nt,-6%
COc1ccc(NC(=O)CSc2nncn2C)cc1,11%,?,3%,nt,2%,8%,nt,2%
O=C(Cn1nnc(-c2ccccc2)n1)N1CCN(S(=O)(=O)c2ccc(Cl)cc2)CC1,-2%,23%&23%,3%,-5.2%,-38%,-18%,6%,-3%
CC(C)CN(C(=O)COC(=O)C1=COCCO1)c1c(N)n(Cc2ccccc2)c(=O)[nH]c1=O,-6%,-3%,-11%,nt,nt,-10%,nt,-1%
CCOc1ccc(S(=O)(=O)N2CCN(c3cc(Cl)ccc3Cl)CC2)c2ccccc12,5%[46.1 µM],?,nt,-1.7%,nt,-14%,10µM*,nt
O=C(NCc1ccncc1)c1cc2ccccc2nc1Cl,17%[46.1 µM],10%[46.1 µM],1%,nt,nt,-11%,nt,-2%
Cc1ccc(S(=O)(=O)c2cc3c(=O)n4ccccc4nc3n(C3CCCC3)c2=N)cc1,24%[46.1 µM],0%[46.1 µM],-7%,nt,-2%,-11%,nt,3%
Cc1ccc(S(=O)(=O)N(CC(=O)N2CCC(C(N)=O)CC2)c2cccc(C(F)(F)F)c2)cc1,-6%,-3%&-3%,-9%,-1.8%,-6%,2%,?,2%
O=C(COC(=O)c1cnccn1)NCCc1ccc(Cl)cc1,23%,5%[46.1 µM],1%,nt,nt,-2%,nt,0%
CC(=O)NCCn1c(SCc2ccc(C)cc2C)nc2ccccc2c1=O,-20%,-25%,3%,-13%,3%,?,?,-1%
CC(C)c1ccc(OCc2ccc(C(=O)NN3CCN(C)CC3)o2)cc1,5%,?,1%,nt,2%,26%,nt,1%
Cc1cccc(Nc2nnc(SCC(=O)N(C)C3CCS(=O)(=O)C3)s2)c1C (configuration not stated),4%,12%,-17%,-1.8%,3%,-17%,10%,14%
CCOC(=O)C1CCCN(S(=O)(=O)CCNC(=O)c2ccc3c(c2)OCO3)C1 (configuration not stated),-18%,?,-1%,nt,nt,?,nt,-5%
CC(C)(C)OC(=O)N[C@@H](COCc1ccccc1)C(=O)N[C@@H](CO)[C@H](O)[C@@H]1C[C@@H]1C(=O)N1CCCC1,nt,nt,12%,nt,-14%,-4%,nt,15%
Cc1ccc(-n2nc(C(=O)NCCN(C)C)c(=O)n(C)c2=O)cc1,15%[46.1 µM],nt,nt,-2.7%,nt,11%,-7%,nt
CC(c1nc2ccccc2c(=O)[nH]1)N1CCOCC1 (configuration not stated),12%[46.1 µM],11%[46.1 µM],3%,nt,3%,-20%,nt,1%
Cc1ccc(NC(=O)CSc2nnc([C@@H](N)Cc3c[nH]c4ccccc34)o2)c(C)c1,-3%,?,12%,18µM*,29%,-21%,16µM*,1%
CC(C)CC(OC(=O)c1nsc(Cl)c1Cl)C(=O)NCc1cccs1 (configuration not stated),3%,?,3%,-5.9%,2%,17%,-10%,-17%
FC(F)(F)c1cc(Nc2nc3ccccc3c3nncn23)ccc1Cl,18%[46.1 µM],3%[46.1 µM],nt,-5.5%,nt,-28%,?,nt
Cc1sc2nc(CC(=O)NN)[nH]c(=O)c2c1C,-2%,-3%,-16%,nt,10%,-11%,nt,0%
COc1cccc(C(=O)Nc2ccccc2-c2nnc(-c3cccc(OC)c3)o2)c1,4%[46.1 µM],11%[46.1 µM],nt,-2.6%,nt,-7%,-12%,nt
CC1=CSC2=NC(=O)/C(=C\c3cccn3-c3ccc([N+](=O)[O-])cc3)C(=N)N12,?,?,15%,-2.8%,12%,-26%,?,17%
Cc1cc(C)c(NC(=O)/C(=C/c2ccccc2)c2ccccc2)c(C)c1,?,?,nt,-5.7%,-16%,-11%,-21%,-39%
S=c1[nH]nc(-c2ccccn2)n1/N=C/c1ccc(Cl)c(Cl)c1,-3%,-4%[14.2 µM],2%,nt,5%,-15%,nt,-1%
Cc1cc(C)c(NC(=O)CCN2CCCCC2)c(C)c1,-2%[46.1 µM],nt,nt,-0.5%,nt,-20%,-6%,nt
COc1ccc(C)cc1NC(=O)CSc1ccc(-c2sc(C)nc2C)nn1,?,-26%[46.1 µM],-7%,nt,16%,-25%,nt,0%
Cc1ccc(NC(=O)CCc2ccc(S(=O)(=O)N3CCOCC3)cc2)c(O)c1,-1%[46.1 µM],-30%[46.1 µM],13%,nt,nt,2%,nt,-2%
O=C(O)C1C2CC2CN1C(=O)c1ccc(Cl)cc1 (configuration not stated),15%,10%[46.1 µM],-19%,nt,-2%,4%,nt,0%
O=C(COc1coc(CN2CCN(c3cccc(Cl)c3)CC2)cc1=O)NC1CCCC1,-28%,-22%,-4%,nt,nt,0%,nt,2%
Fc1cccc(CSc2nc(NCCc3ccccc3)c3ccccc3n2)c1,-3%[46.1 µM],nt,nt,-1.0%,nt,-29%,-15%,nt
COc1ccc(OC)c(/C=N/NC(=O)c2ccc(=O)[nH]n2)c1,nt,nt,-20%,nt,20%,-14%,nt,0%
CCCCCCC(=O)Nc1ccc(Cl)cn1,1%,16%,-7%,1.6%,-13%,50%[activator],-2%,nt

Screening results: PubChem, National Center for Advancing Translational Sciences (NCATS)

An unsorted share of the library, and some 4.7% of all compounds hit somewhere here.
